# Bioassay records from PubChem BioAssay.
# Rce1 inh: blocks yeast Ras-converting enzyme. Q03530. yeast membranes, quenched prenylated peptide cleavage fluorescence. calls only. hit rate 0.27% among 290,000;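 active = fall in fluorescence gain of 50% or more versus controls, with final raw signal at or below 3038400; inconclusive = same 50% fall but final raw signal above 3038400; inactive = fall in fluorescence gain under 50%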;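 also: plate controls were neutral control wells for no effect and wells lacking membranes for full effect; tested at 10 µM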
# PABP polyA inh: blocks human PABP binding to poly(A) RNA. P11940. fluorescence polarization. inhibition, % at 35 µM. hit rate 1% among 290,000;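 active = 50% or more with normal probe brightness, or confirmed in later tests; inconclusive = above 50% with abnormal brightness, or retests that disagree; inactive = below 50% or failed in later tests; about a fifth of its hits are not listed in these tables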;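 also: calls also rest on retests at 20 µM and on dose response follow-up; controls were probe without protein and protein plus probe with vehicle; some compounds called inactive have numbers as strong as hits; many hits fall short of the cut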
# Target sequence (P11940 whole entry, looked up): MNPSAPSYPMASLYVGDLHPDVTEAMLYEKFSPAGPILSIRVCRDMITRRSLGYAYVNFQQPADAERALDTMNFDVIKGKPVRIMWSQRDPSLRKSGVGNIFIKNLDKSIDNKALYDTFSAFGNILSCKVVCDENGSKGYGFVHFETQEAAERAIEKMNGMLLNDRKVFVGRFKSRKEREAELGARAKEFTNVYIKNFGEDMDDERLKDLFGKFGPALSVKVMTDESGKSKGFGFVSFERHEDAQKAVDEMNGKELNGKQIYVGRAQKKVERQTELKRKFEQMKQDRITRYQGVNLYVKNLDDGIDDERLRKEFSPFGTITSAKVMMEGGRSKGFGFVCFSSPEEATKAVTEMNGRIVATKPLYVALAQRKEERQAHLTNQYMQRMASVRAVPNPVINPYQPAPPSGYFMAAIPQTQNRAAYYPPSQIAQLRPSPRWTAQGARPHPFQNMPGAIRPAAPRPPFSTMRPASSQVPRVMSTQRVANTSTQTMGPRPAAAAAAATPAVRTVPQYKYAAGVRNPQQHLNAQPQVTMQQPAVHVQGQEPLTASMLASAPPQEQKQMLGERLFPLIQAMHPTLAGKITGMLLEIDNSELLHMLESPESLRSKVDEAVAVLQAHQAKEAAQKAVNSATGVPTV
# MT1-MMP act inh: inhibitors of human MT1-MMP activation; GFP/RFP ratio change, % at 20 µM; HT1080 RFP-PRO-GFP cells, GFP/RFP ratio fluorescence, overnight; percent of plate control window, DMSO zero; P50281; hit rate 0.061% among 360,000; AID 651647;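 active = GFP/RFP ratio change of at least 30% with cell ATP level not reduced by more than half and red fluorescence within 50% of control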; also: strong numbers were not always called active
#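 Assay system: HT1080 RFP-PRO-GFP cells. Benchmarks: DMSO vehicle wells and RFP-L50D-GFP reporter cell wells. Times: overnight cell settling, then overnight compound exposure, 37 °C, 5% CO2. Compound: 20 µM single dose, 1% DMSO. Read-out basis: GFP/RFP fluorescence ratio.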
# eIF4H FP inh: inhibitors of RNA binding by human eIF4H. eIF4H fluorescence polarization binding assay. hit rate 0.94% among 290,000. inhibition, % at 35 µM. Q15056. AID 2012;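 active = 50% or more with normal probe brightness, or confirmed in later tests; inconclusive = above 50% with abnormal brightness, or retests that disagree; inactive = below 50% or failed in later tests; about a fifth of its hits are not listed in these tables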;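 also: calls also rest on retests at 20 µM and on dose response follow-up; 0% = protein and probe with vehicle and 100% = probe without protein; strong numbers were not always called active; many hits fall short of the cut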
# CSC inhib: cancer stem cell inhibition. cancer stem cell-like cells viability, luminescence. hit rate 1.1% among 300,000. inhibition, % at 7.5 µM;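 active = mean at 75% or more and at least half the replicates too; inconclusive = mean and replicates disagree; tested in HMLE shEcad cells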;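 also: 0% = median of negative and 100% = median of positive control wells; the first replicate is given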
# HIV Env fusion: inhibitors of HIV Env-mediated cell fusion; inhibition, % at 12.3 µM; hit rate 1.1% among 360,000; AID 651610; HeLa-JRFL Env/CEM21 cell fusion, luciferase;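 active = mean replicate inhibition score of at least 50 and every replicate individually at or above 50; inconclusive = only one of the two criteria met; inactive = mean below 50 and not all replicates reaching 50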;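 also: 0% = plate neutral controls and 100% = maraviroc near 300 nM; one replicate is shown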
# UUG fidelity: yeast start codon fidelity modulation; S. cerevisiae UUG-firefly luciferase reporter, luminescence/redox ratio; activity score, % at 18.7 µM; hit rate 0.13% among 350,000; AID 602363;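 active = replicate mean at a twofold rise or more, about +100% in these data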;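 also: firefly luciferase made from a UUG start codon reports start codon fidelity; reporter light over untreated wells divided by growth signal over untreated wells; some hits fall short of that in this replicate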
# eIF4H FP inh retest: second read-out of eIF4H FP inh, no call of its own (marks repeat the call); inhibition, %; compound at 20 µM; confirmation average;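 mean of two retest wells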
# PABP polyA inh retest: further read-out of PABP polyA inh, marked with its call; inhibition, %; compound at 20 µM; confirmation repeats;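 mean of two retest wells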
# MT1-MMP act inh RFP: recorded beside MT1-MMP act inh, whose call it bears; RFP signal change, %; measured here: RFP expression control read;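 0 = vehicle wells; hits needed this value within 50% of zero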
# An asterisk follows results filed as active; i = inactive; ? = inconclusive; . = no result given; & = joins results of further samples. Only part of the results is shown; count on the stated rates, not on these rows.
SMILES,Rce1 inh,PABP polyA inh,MT1-MMP act inh,MT1-MMP act inh RFP,eIF4H FP inh,CSC inhib,HIV Env fusion,UUG fidelity,others
O=C(N/N=C/c1c(O)n(Cc2ccc(F)cc2)c(=S)[nH]c1=O)c1ccncc1,i,19,5,7,31,5,7,-12,
COc1ccc(CCn2c(O)c(C=NCc3cccnc3)c(=O)[nH]c2=O)cc1OC,i,5,-5,2,-4,-5,27,-4,
CC1CCN(C(=O)CCl)CC1,i,0,1,1,-2,3,17,.,
CC(=O)OC1(c2ccccc2)CCN(C)C(C)C1C (configuration not stated),i,-3,-4,1,1,-1,.,-16,
O=C(c1ccc(C(F)(F)F)cc1)C1CCCN(Cc2ccncc2)C1 (configuration not stated),i,-12,-15,-30,-8,22,23,.,
O=C(Oc1c(Cl)cc(Cl)c2ccccc12)N1CCCCC1,i,-12,0,-5,9,15,.,-14,
CN/C=C(/Cl)P(=O)(OC(C)C)OC(C)C,i,.,-2,3,.,-5,13,.,
CN(C)CCN=Cc1c(O)n(-c2cccc3ccccc23)c(=O)[nH]c1=O,i,-10,-6,5,-5,5,.,-12,
Cc1ccc(/C=C2\C(=O)NC(=S)N(c3cccc(F)c3)C2=O)o1,i,20*,-18,10,72,-4,-2,-2,eIF4H FP inh retest=29;PABP polyA inh retest=53*
O=C1Nc2cc(C(=O)N3CCC4(CC3)OCCO4)ccc2S/C1=C\c1ccccc1,i,.,2,-6,.,52,10,-14,
CC1(C)CC(=O)C(C=NCCN2CCN(C(=O)Cc3ccc(Cl)cc3)CC2)=C(O)C1,.,3,2,1,-3,.,-7,0,
CC(=O)OC(C)(C)/C=C/C(=O)[C@](C)(O)C1[C@H](O)C[C@@]2(C)C3CC=C4C(C[C@H](O)C(=O)C4(C)C)[C@]3(C)C(=O)C[C@]12C (some centres not stated),.,.,-29,-20,.,70,.,6&-13,
Fc1ccc(C2=CCN(C(c3ccc(Cl)cc3)c3nnnn3Cc3ccccc3)CC2)cc1 (configuration not stated),.,1,-13,-15,-3,2,1,.,
COc1ccc(CN2CCN(Cc3ccccc3OC)CC2)cc1,i,8,0,0,0,-3,4,-1,
Nc1ccc(-c2ccccc2)cc1,.,.,4,6,.,.,-26,-24,
COc1cccc(CNCCc2ccc(F)cc2)c1,i,-6,-1,3,-3,3,-15,-17,
COC/C=C1\CN2C3C[C@@H]1[C@H]1COC4=Nc5cc(OC)c(OC)c(OC)c5[C@@]43C[C@@H]12,i,.,3,5,.,-1,.,-15,
CCOC(=O)c1c(C)n(Cc2ccccc2)c2ccc(OCC(O)CNC(C)(C)C)cc12 (configuration not stated),i,-2,5,-5,-12,-4,-26,11,
CCOCCN1CCN(c2nnc3n2-c2ccc(Cl)cc2C(c2ccccc2Cl)=NC3)CC1,i,-5,1,0,1,1,.,.,
Cc1ccccc1CN1CCNCC1,i,23,-1,5,-4,-8,2,-16,
CCCCn1c(O)c(C(C)=NCC2CCCO2)c(=O)[nH]c1=O (configuration not stated),i,4,9,0,9,6,-4,-13,
Cc1ccccc1-n1c(O)c(C=NCCN2CCOCC2)c(=O)[nH]c1=O,i,2,0,4,2,-3,.,-15,
O=C(NC1CCCCC1)N1C[C@H]2C[C@@H](C1)c1cccc(=O)n1C2,i,2,1,2,-7,-9,7,-9,
COc1ccc2c3c1OC1C(O)C=CC4C(C2)[N+](C)(C)CCC341 (configuration not stated),i,98*,-3,0,48,-13,-2,-9,eIF4H FP inh retest=19;PABP polyA inh retest=101*
COCCOC(=O)C1=C(C)OC(N)=C(C(=O)OC)C12C(=O)Nc1ccccc12 (configuration not stated),i,1,9,9,5,12,-76,9,
COC(=O)C1=C(c2ccc(-c3ccccc3)c(F)c2)C[C@@H]2CC[C@H]1N2C(=O)NCCO,.,.,4,-1,.,4,-4,10,
CC/C(=N\Nc1ccccc1)c1c(O)n(C)c(=O)n(C)c1=O,i,-8,2,1,-11,-7,15,.,
CCC1(CC)C(=O)N(C)C(=O)NC1=NC,i,-11,2,0,-25,3,15,.,
COC(=O)C1=C(c2cccc(OC)c2OC)C[C@@H]2CC[C@H]1N2C(=O)N1CCC(C)CC1,i,.,2,-1,.,-3,-17,12,
COCCn1c(-c2ccccc2)cc(C(=O)O)c1C,i,.,-1,3,.,-14,-39,5,
Cc1cccc(OP(N)(=O)Oc2cccc(C)c2C)c1C,i,-12,-1,-2,7,-8,8,.,
Cc1cccc(C)c1NC1=NCCCCS1,i,-5,5,-2,-10,-12,-37,-13,
COc1ccc(CC2c3cc(OC)c(OC)cc3CCN2C)cc1OC (configuration not stated),i,-2,-4,0,-6,-8,.,-27,
CC1=C(C/C(C)=C/c2ccccc2)/C(=C/CO)[C@@H]2OC(=O)O[C@]2(C)C12CC2,i,.,-2,-4,.,.,-4,-10,
Cc1ccc2cc3cc(C(=O)N4CCC5(CC4)OCCO5)oc3nc2c1,i,-3,0,-1,2,-12,.,-27,
Cc1cc(C=C2C(=O)NC(=O)NC2=O)c(C)n1-c1ccncc1,i,10,-3,0,8,-14,0,-15,
N/C(=N\[N+](=O)[O-])N1CCN(C(=O)c2ccccn2)CC1,i,0,9,3,5,-6,-13,-23,
COc1ccccc1CNCCc1cccc(Cl)c1,.,.,1,6,.,.,12,-33,
CC(=O)OC1N=C(c2ccc(Cl)cc2)c2cc(Br)ccc2NC1=O (configuration not stated),i,-6,1,0,-4,-9,4,8,
COC(=O)C1=C(c2ccc(Cl)c(C(F)(F)F)c2)C[C@@H]2CC[C@H]1N2C(=O)N1CCOCC1,.,.,0,-1,.,3,10,1,
CCNC(=O)NNC(=O)C1CC(c2cccnc2)=NO1 (configuration not stated),i,3,1,2,11,-4,11,-16,
CNC(=O)Oc1ccc(-c2cn3cc(C)ccc3n2)cc1,i,0,1,1,-6,10,.,.,
CCCCn1c(=O)c(C(=O)Nc2ccccc2C)c(O)c2ccccc21,i,-11,-2,-12,-1,-2,.,-1,
O=C1c2ccccc2C(=O)N1Cc1nc2ccccc2c(=O)n1-c1cccnc1,i,-5,0,3,-9,15,.,.,
CC(C)C(=O)Nc1nnc(CCN(CCc2nnc(NC(=O)C(C)C)s2)[N+](=O)[O-])s1,i,2,7,0,0,4,-2,-15,
Cc1ccc(N2C(=O)NC(=O)C(CCc3ccncc3)(Cc3cccc(Cl)c3Cl)C2=O)cc1 (configuration not stated),i,-7,-10,-11,-8,-1,37,7,
COc1ccc(NC2(C#N)CCCCC2)cc1,i,-3,3,5,-4,19,12,-6,
CP(C)(=O)CCC(=O)O,i,6,-2,-3,-2,-9,.,5,
CCC(C)C12CN3CCN(CC(C)(C3)C1=O)C2 (configuration not stated),i,13,5,8,8,-6,.,-4,
COC(=O)C1=C(c2cccc(OCc3ccccc3)c2)C[C@@H]2CC[C@H]1N2C(=O)NCc1ccc(C(F)(F)F)cc1,.,.,0,-10,.,35,27,-24,
N#Cc1ccc(NC(=O)CN2CCN(C(=O)c3cccs3)CC2)cc1Cl,.,.,2,3,.,.,11,-6,
Cc1cc[n+](Cc2ccccc2)cc1,i,.,-6,0,.,-12,4,-18,
CN(C)CCN=Cc1c(O)n(CCC2=CCCCC2)c(=O)[nH]c1=O,i,-4,12,7,-5,-2,-47,-3,
COc1cccc(CN2CCCCC2c2cccnc2)c1 (configuration not stated),i,30,-1,1,-8,-1,.,-2,
Cc1ccc(-n2c(O)c(C=NCCN3CCOCC3)c(=O)[nH]c2=O)cc1,i,-5,0,6,-1,-12,.,-13,
CC(C)[C@@]1(NC(=O)[C@@H]2C[C@@H]3c4cccc5[nH]cc(c45)C[C@H]3N(C)C2)O[C@@]2(O)[C@@H]3CCCN3C(=O)[C@H](Cc3ccccc3)N2C1=O,i,-2,-5,2,?,2,-309,1,
O=c1[nH]c(=O)n(Cc2ccccc2)c(O)c1C=NCCCn1ccnc1,i,48,-12,-3,12,-8,.,3,
CCOc1cc2c(cc1OCC)-n1cccc1C(c1ccccc1F)NC2 (configuration not stated),i,-3,-1,-1,8,3,-6,-8,
CC1=C(C(=O)N2CCC3(CC2)OCCO3)C2(CCC(C)CC2)OC1=O (configuration not stated),i,4,10,5,14,-3,-12,1,
Cc1ccc2c(c1Cl)NC(C(=O)O)C1CC(Sc3ccccc3[N+](=O)[O-])C(Cl)C21 (configuration not stated),.,62*,3,0,87*,29,.,.,

# 3 structures already listed, ordered by SMILES length, rising:
SMILES,Rce1 inh,PABP polyA inh,MT1-MMP act inh,MT1-MMP act inh RFP,eIF4H FP inh,CSC inhib,HIV Env fusion,UUG fidelity,others
COc1cccc(CNCCc2ccc(F)cc2)c1,i,-6,-1,3,-3,3,-15,-17,
CCC(C)C12CN3CCN(CC(C)(C3)C1=O)C2 (configuration not stated),i,13,5,8,8,-6,.,-4,
COC(=O)C1=C(c2cccc(OC)c2OC)C[C@@H]2CC[C@H]1N2C(=O)N1CCC(C)CC1,i,.,2,-1,.,-3,-17,12,

# Remaining list, next part.
SMILES,Rce1 inh,PABP polyA inh,MT1-MMP act inh,MT1-MMP act inh RFP,eIF4H FP inh,CSC inhib,HIV Env fusion,UUG fidelity,others
COc1ccc2c(c1)NP(=S)(c1ccccc1)N2 (configuration not stated),.,.,-2,5,.,.,?,-20,
CCCCn1nnnc1C(c1ccnc2ccccc12)N1CCC2(CC1)C(=O)NCN2c1ccccc1 (configuration not stated),.,.,8,3,.,.,1,-5,
CCC(N)Cc1c[nH]c2ccccc12 (configuration not stated),i,3,-11,-2,-4,.,6,-21,
NC(=O)Nc1ccc(C(=O)OCC(=O)Nc2ccc(Cl)cc2C(=O)c2ccccc2)cc1,i,0,3,6,-2,-5,.,-9,
Cc1cc(OC(C)C(=O)NCc2cccnc2)c2c3c(c(=O)oc2c1)CCC3 (configuration not stated),i,14,0,-1,-10,-22,-8,-11,
O=C1NC(=O)C2(Cc3cc([N+](=O)[O-])ccc3N3CCN(C(=O)c4ccccc4)CC32)C(=O)N1 (configuration not stated),.,-16,4,6,-8,-1,-7,16,
O=C1NC(=O)N(c2ccc(F)cc2)C(=O)/C1=C/c1ccc(N2CCOCC2)cc1,i,?,1,1,-20,-21,6,-11,
O=P(Nc1cccc(Cl)c1)(Oc1ccccc1)Oc1ccccc1,i,7,-2,-3,-12,19,21,-9,
N[C@@H](Cc1c[nH]c2ccccc12)c1nnc(SCc2ccccc2F)o1,i,13,1,3,-5,8,9,-14,
C=C1N2CCC(CC2)C1(O)c1ccc(C)c(C)c1 (configuration not stated),i,-14,-10,-1,2,.,-56,-18,
COC(=O)C1=C(c2c(C)noc2C)C[C@@H]2CC[C@H]1N2C(=O)N1CCC(O)CC1,.,.,5,7,.,4,-19,7,
CCOC(=O)CNC(=O)N1Cc2cc(-c3ccc(OC)cc3)ccc2-n2nncc2C1,.,.,2,2,.,.,-13,-5,
CC(CN1CCOCC1)OC(=O)Cc1ccccc1 (configuration not stated),i,-14,6,5,-8,-7,15,.,
CCn1c(C)cc(/C=C2\C(=O)NC(=O)N(c3ccccc3C)C2=O)c1C,i,6,0,3,1,.,17,-3,
Cc1ccc(-c2nc3ccccc3c(=O)n2-c2ccccn2)cc1,i,5,1,0,-6,-2,2,.,
COC(=O)C1=C(c2c(C)noc2C)C[C@@H]2CC[C@H]1N2C(=O)N1CCC(C)CC1,.,.,3,2,.,-9,-46,-2,
Cc1ccc(-n2c(O)c(C=NCCC3=CCCCC3)c(=O)[nH]c2=O)cc1,i,6,-2,-5,-10,1,0,-8,
COc1cc2c(cc1OC)C(C1c3cc4c(cc3CCN1C)OCO4)OC2=O (configuration not stated),i,6,-6,-2,-2,9,8,-7,
